Screening results deposited in PubChem by National Center for Advancing Translational Sciences (NCATS).
D2 potentiator = potentiates the human D2 dopamine receptor allosterically; AID 624464; potentiation, % (concentration not given with the values); P14416; DiscoveRx D2 beta-arrestin cells, luminescence, 90 min; 100% = 57 uM dopamine signal; 0.23% of 360,000 active; active = potentiation of 50% or more; inconclusive = 30% to 50%; inactive = 30% or less;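 further: compound concentration not given in the record; tested on top of an EC20 dose of dopamine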
Target sequence (P14416 whole entry, looked up): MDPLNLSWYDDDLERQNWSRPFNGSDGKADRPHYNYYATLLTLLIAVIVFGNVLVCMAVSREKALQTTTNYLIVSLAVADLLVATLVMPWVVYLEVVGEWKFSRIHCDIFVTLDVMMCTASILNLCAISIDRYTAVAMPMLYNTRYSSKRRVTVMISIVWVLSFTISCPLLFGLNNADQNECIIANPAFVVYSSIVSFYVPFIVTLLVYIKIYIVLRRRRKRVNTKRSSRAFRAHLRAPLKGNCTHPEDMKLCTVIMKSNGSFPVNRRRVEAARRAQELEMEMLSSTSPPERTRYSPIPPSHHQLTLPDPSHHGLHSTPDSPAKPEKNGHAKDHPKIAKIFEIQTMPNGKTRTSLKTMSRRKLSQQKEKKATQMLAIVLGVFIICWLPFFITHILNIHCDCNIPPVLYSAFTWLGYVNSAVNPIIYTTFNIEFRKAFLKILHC
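D2 cells co-treated with compound plus 50 nM dopamine (EC20) for 90 min at 37 deg C to detect potentiation. Beta-arrestin recruitment was read as enzyme-fragment luminescence after 1 h at ambient temperature. Full response was set by 57 uM dopamine.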
TRPV1 potentiator = enhances activation of the human vanilloid receptor TRPV1; Q8NER1; TRPV1-expressing cells, Fluo-8 calcium influx, capsaicin EC20 potentiation; host cell line not named in the record; control for the full effect not named in the record; potentiation, % at 8.33 µM; 0.02% of 320,000 active; active means potentiation above 80%; inconclusive means 30% to 80%; inactive means below 30%; further: 0% is about no effect
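TRPV1-expressing cells were cultured overnight at 35.5C and loaded with Fluo-8 calcium dye for 40 to 90 min at room temperature. After a 10 s baseline, compound was added and calcium influx was read kinetically for 3 min (ex 480/em 520 nm).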
gsp ag = gsp mutant agonism | gsp mutant cells, cAMP HTRF, 30 min; control for the full effect not named in the record | Potency, µM (doses to about 76.9 µM), for the others: at the highest dose activation (cAMP increase), most hits filed as activators | 0.13% of 340,000 active | AID 624287; active = well fitted activation curve with a large enough effect; inconclusive = small, poorly fitted or top-dose-only effect, or another doubt; inactive = no such curve, though single readings can be large or run the other way; cell line not stated here;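 further: phosphodiesterase inhibitor Ro 20-1724 added with compounds to block cAMP breakdown; potency means the concentration at half of the fitted maximal effect; nearly all actives have a fitted effect of over 60% in size; about a fifth of the inactives were tested at one dose only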
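Cells stably selected in G418 were plated at 2000/well, grown 16-24 hr, then given compounds in DMSO with the PDE inhibitor […] (300 uM solution added) for 30 min at 37C; cAMP was read by HTRF.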
ClpP mod = qHTS Assay for Activators of ClpP; ATP-dependent Clp protease proteolytic subunit (Bacillus subtilis (strain 168)), P80244; purified B. subtilis ClpP, FRET peptide cleavage, 20 min; Potency, µM (top dose mostly 57.5 µM), inactives show at the highest dose activity change, negative = active; 1.9% of 340,000 active; AID 651965, 2013; active = well fitted falling curve with a large enough effect; inconclusive = small, poorly fitted or top-dose-only effect; inactive = no such curve, though single readings can be large or run the other way; further: potency means the concentration at half of the fitted maximal effect; the source files actives as falling curves though it sought activators and does not explain the sign; nearly all actives have a fitted effect of over 65% in size; many hits overshoot -100%
Target sequence (P80244 whole entry, looked up): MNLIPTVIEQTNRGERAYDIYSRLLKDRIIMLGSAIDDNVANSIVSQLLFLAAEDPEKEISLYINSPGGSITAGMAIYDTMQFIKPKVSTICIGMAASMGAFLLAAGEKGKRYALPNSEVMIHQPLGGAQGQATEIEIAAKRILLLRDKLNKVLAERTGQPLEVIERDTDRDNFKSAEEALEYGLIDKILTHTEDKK
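FRET quenching reversal measured ClpP activation: 10 microg/mL B. subtilis ClpP at pH 8 with the FRET-FV decapeptide, read at 430 nm after 320 nm excitation. The 20-min minus 0-min signal was scaled between DMSO/no-enzyme wells and ADEP (5.8 microM final).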
gsp antagonist = antagonists of gsp mutant (McCune-Albright syndrome). AID 624288. 0.4% of 340,000 active. gsp-mutant cells, cAMP HTRF, 30 min; control for the full effect not named in the record. Potency, µM (doses to about 76.9 µM), for the others: at the top dose activity change, negative = inhibition, most hits filed as inhibitors; active = falling curve of any shape with a large fitted effect; inconclusive = falling curve, mostly with a smaller effect; inactive = flat or rising curve; cell line not stated here;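 further: intracellular cAMP measured with PDE inhibitor Ro 20-1724 present during compound exposure; potency means the concentration at half of the fitted maximal effect; on the % scale 0 is the no-effect control and ±100 the full control effect; nearly all actives have a fitted effect of over 65% in size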
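Measurement of cellular cAMP by homogeneous time-resolved fluorescence following a 30 min compound exposure at 37C. The PDE inhibitor […] was present throughout; the assay buffer was DPBS with 0.05% BSA and 0.005% Tween 20.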
Sfp inh = inhibitors of Bacillus subtilis Sfp phosphopantetheinyl transferase | AID 1490 | Biochemical Sfp PPTase activity, qHTS | 3.5% of 310,000 active | Q9F4F7 | Potency, µM, without a hit: max response, negative = inhibition, actives largely listed as inhibitors; active means well fitted inhibition curve with a large enough effect; inconclusive means small, poorly fitted or top-dose-only effect, or another doubt; inactive means no such curve, though single readings can be large or run the other way;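 further: the enzyme is Sfp with the accession as filed and its product quenches rhodamine fluorescence; potency means the concentration at half of the fitted maximal effect; 0% = enzyme reaction without inhibitor and -100% = no enzyme wells; top concentration of the series not given in the record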
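With Hepes-Na pH 7.6 buffer containing 10 mM MgCl2, Sfp (15 nM) modified BHQ-2-YbbR (12.5 uM) using rhodamine-CoA (5 uM). Two reads 30 minutes apart at 525/598 nm yielded each well's rate.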
Menin MLL FP FL = displaces fluorescein MLL peptide from human menin; 290,000 tested, under 10 active; FP activity change, % at 61.4 µM; Fluorescence polarization, fluorescein-MLL peptide displacement from menin; inconclusive = falling polarisation curve, or a change in total fluorescence; inactive = total fluorescence flat and polarisation flat or rising; no compound was filed as active; the % refers to the polarisation; negative = inhibition;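 further: % of control where 0% means no effect; inhibitors lower the polarisation; unlabelled MLL peptide was the positive control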
* hit, by the source's call; ? = inconclusive; / = not tested or not shown; & = joins results of further samples; [ ] = another dose, or the depositor's remark.

SMILES	D2 potentiator	TRPV1 potentiator	gsp ag	ClpP mod	gsp antagonist	Sfp inh	Menin MLL FP FL
O=C(Cc1ccccc1)NCC(=O)OCC(=O)c1cccs1	-19	1	?	-6.7%	1%	3%	-1.5
O=C(C1CCCCC1)N1CCN=C1SCc1cccnc1	-8	-8	26%	0.6%	5%	15%	3.2
O=C(/C=C/c1ccccc1)NC(=S)Nc1ccccc1	-3	-23	?	/	-2%	8%	1.9
C/C(=N\O)C(=O)NCCN(C)C	-9	-4	30%[15.4 µM]	1.7%	3%	-2%	2.8
CC1Cc2ccccc2N1Cc1cc(=O)c(OCC(=O)NCCc2ccccc2)co1 (stereo unspecified)	-15	-8	-12%	-11%	-8%	/	/
COc1ccc(N(CN2C(=O)C3C4C=CC(C4)C3C2=O)C(=O)c2ccco2)cc1 (stereo unspecified)	-4	4	2%	0.5%	-2%	13%	3.1
CCN(CC)CCNC(=O)C(Cl)=C1C(Cl)=C(Cl)C(Cl)=C1Cl	-27	/	4%[15.4 µM]	-1.3%	1%	/	/
COc1cc(C(=O)OCC(=O)NC(=O)c2cccn2C)ccc1OC(F)F	0	15	-2%	/	14%	13%	1.6
Cn1c(=S)n(/N=C/c2cccs2)c2ccccc21	-5	-2	1%[15.4 µM]	/	-11%	-1%	0.2
CC(C)NC(=O)CN(Cc1ccc2c(c1)OCO2)C(=O)CCC(=O)Nc1ccccn1	1	-6	0%[15.4 µM]	/	9%	6%	0.8
COc1cccc(C(=O)NCC(=O)n2nc(C)cc2C)c1	?	-1	-1%	-7.6%	0%	9%	0.5
Cc1ccc(C)c(OCc2cc(C(=O)N3CCN(c4cnccn4)CC3)no2)c1	11	1	-7%	?	-23%	-2%	/
CCOC(=O)C1=C(COC(=O)C2CC(=O)N(c3ccccc3F)C2)NC(=O)NC1C (stereo unspecified)	7	-11	-28%	0.1%	12%	/	/
O=C(CN1C(=O)c2cccc3cccc1c23)NC1CCCCC1	-9	13	-4%[15.4 µM]	/	9%	10%	/
CC(C(=O)N1CCc2ccccc21)N(C)CC(=O)Nc1ccccc1Cl (stereo unspecified)	-2	0	8%	-0.5%	0%	/	/
Cc1cc(C(=O)COC(=O)c2ccc(O)cc2)c(C)n1CC1COc2ccccc2O1 (stereo unspecified)	23	6	8%	-3.6%	?	-5%	1.6
CCC1CCCCN1S(=O)(=O)c1ccc(NC(=O)c2ccncc2)cc1 (stereo unspecified)	8	4	-43%[inhibitor]	0.6%	-4%	6%	/
C=CCNC(=O)CSCc1ccc(Br)cc1	-2	-20	7%	0.3%	13%	18%	-1.8
COc1ccc(NC(=O)CSc2nnc(-c3cccnc3)s2)cc1	-10	-2	13%	-1.1%	2%	17%	4.2
COc1ccc(C(=O)NNC(=O)CCn2nnc(-c3ccc(C)cc3)n2)cc1OC	-5	14	11%[15.4 µM]	/	/	9%	0.2
CC1=CC(C)(C)N(S(=O)(=O)c2ccc(F)cc2)c2ccc(C)cc21	-13	9	-21%	-0.5%	4%	-7%	-0.3
CN1c2ccccc2C(=O)/C(=C\Nc2ncccn2)S1(=O)=O	1	2	4%	/	-4%	25%	1.9
N#C/C(=N\Nc1ccc(F)cc1)C(=O)C1CC1	-11	-15	7%	-2.5%	-8%	-8%	0.6
Cc1cccc(CSc2nnc(NC(=O)CSc3nnc(C)s3)s2)c1	-4	-5	-3%	-1.8%	4%	14%	0.1
CCN(CC(=O)Nc1c(F)cccc1F)C(=O)Cn1[nH]c(=O)c2ccccc2c1=O	-4	-1	?	-12%	7%	/	/
CCOc1ccc(-c2noc(CCC(=O)O)n2)cc1	-2	-8	-19%	-1.3%	0%	12%	0.2
Cc1ccc(CNC(=O)CCCn2nc(C)c3c(C)n(-c4ccccc4)nc3c2=O)cc1	-3	-4	?	-3.9%&-7.1%	-3%	-6%	/
Cc1ccc(Cn2c(C)cc3c(c2=O)C(c2cccs2)C(C#N)=C(N)O3)cc1 (stereo unspecified)	-6	3	-37%[inhibitor]	-1.0%	3%	25%	-0.4
CC(OC(=O)c1ccncc1)C(=O)Nc1cc(S(=O)(=O)N2CCCCC2)ccc1Cl (stereo unspecified)	2	16	-9%[15.4 µM]	1.2%	6%	9%	3.3
COc1cc(C=NNC(=O)C(=O)Nc2cccc(Cl)c2)cc(OC)c1O	-3	/	?	-3.5%	/	/	/

An excerpt of the results above, as a working copy:
SMILES	D2 potentiator	TRPV1 potentiator	gsp ag	ClpP mod	gsp antagonist	Sfp inh	Menin MLL FP FL
CC(OC(=O)c1ccncc1)C(=O)Nc1cc(S(=O)(=O)N2CCCCC2)ccc1Cl (stereo unspecified)	2	16	-9%[15.4 µM]	1.2%	6%	9%	3.3
COc1cc(C=NNC(=O)C(=O)Nc2cccc(Cl)c2)cc(OC)c1O	-3	/	?	-3.5%	/	/	/

(listing goes on)
SMILES	D2 potentiator	TRPV1 potentiator	gsp ag	ClpP mod	gsp antagonist	Sfp inh	Menin MLL FP FL
COCCn1ccc2c(OCC(=O)Nc3ccccc3OC)cccc2c1=O	-4	27	3%	?	?	/	/
Cc1ccccc1C(=O)NCC(=O)N1CCN(C/C=C/c2ccccc2)CC1	-17	/	17%	-1.7%	3%	/	/
CCCCc1nc(Cl)c(CO)n1Cc1ccc(-c2ccccc2-c2nn[nH]n2)cc1	-8	9	/	1.8%	-7%	9%&15%	-1.3&-4.6
CSc1cccc(NC(=O)CCCNC(=O)c2ccc(Cl)cc2)c1	-14	-5	5%[15.4 µM]	/	-12%	8%	0.2
O=[N+]([O-])c1ccc(N/N=C\c2ccccc2OCc2ccccc2)cc1	-21	9	-24%	2.3%	6%	16%	?
C(=Cc1cnnc2ccccc12)c1ccccc1	-5	/	-28%	/	-6%	/	/
COc1cc(OC)cc(OCC(O)Cn2cnc3cc(C)c(C)cc32)c1 (stereo unspecified)	2	/	5%	0.8%	-14%	12%	4.0
CCOC(=O)NC(=O)c1cn(CCN(C)C)c(=O)[nH]c1=O	-3	11	3%[15.4 µM]	/	-3%	24%	-0.3
Cc1ccc(Oc2ccc(C(=O)NC3CCSC3=O)cn2)cc1 (stereo unspecified)	-10	3	-68%[inhibitor]	-2.4%	-2%[15.4 µM]	15%	-0.4
CCOC(=O)C(C(=O)Nc1ccccc1C)C1CCCCC1 (stereo unspecified)	-1	-14	-65%[inhibitor]	0.0%	1%	17%	-1.6
CCOC(=O)C1CCCN(CCCc2ccccc2)C1 (stereo unspecified)	-11&-19	1&7	-66%&-3%[inhibitor]	3.2%&1.8%	10%&7%	0%&21%	0.8&-2.2
Cc1noc(C)c1NC(=O)Nc1ccc2c(c1)C(=O)N([C@@H](C)CO)C[C@@H](C)[C@H](CN(C)C(=O)Nc1cccc3ccccc13)OCCCC[C@H](C)O2	4	/	20%	4.1%	/	/	/
Cc1cccc(OC(=O)NCCOC(=O)N(O)c2ccc(Cl)cc2)c1	-1	-4	-2%	-2.1%	3%	-5%	0.3
Cc1ccc(C(=O)NNC(=O)c2n[nH]c(=O)c3ccccc23)cc1C	-4	-4	17%[15.4 µM]	/	12%	/	/
CCCCN1CC[C@H]2C=CC[C@@H](C(=O)Nc3ccc(OC)cc3)[C@H]2C1=O	-6	/	-6%	1.0%&1.4%	1%	/	/
CCOc1ccc(C(=O)CC(C(=O)O)N2CCCCC2)cc1 (stereo unspecified)	-2	-1	-2%	0.8%	?	/	/
Cc1cccc(OCC(=O)N/N=C/c2ccc3c(c2)OCO3)c1	-16	2	2%[15.4 µM]	/	/	-12%	0.4
CC(C)NC(=O)C(=O)NCc1ccccn1	-2	-7	17%	0.5%	2%	3%	-0.3
Cc1nn(Cc2ccccc2)c(Cl)c1/C=C1\NC(=S)NC1=O	-10	-5	0%	1.7%	-6%	40µM*	-0.1
Cc1ccc(NS(=O)(=O)c2ccc3c(c2)CCC(=O)N3)cc1C	6	-6	33%[15.4 µM]	/	-9%	1%	-1.8
CCOc1ccc(S(=O)(=O)Nc2ccccc2SC)c2cccnc12	?	2	-16%	-1.0%	13µM*	-1%	3.0
CCOc1ccc(N(C(=O)Cn2nnc3ccccc32)C(C(=O)NC(C)(C)CC)c2cccn2C)cc1 (stereo unspecified)	-19	-9	37%	-7.3%	4%	25%	-1.5
C[C@H](CO)N1C[C@H](C)[C@@H](CN(C)S(=O)(=O)c2cn(C)cn2)Oc2c(NC(=O)Nc3ccc4c(c3)OCO4)cccc2C1=O	-7	/	-23%	-3.1%	2%	/	/
CC1=CC(c2ccccc2)=Nc2ccc(C)cc2N1	-5	0	-43%[inhibitor]	4.2%	1%	21%	-0.5
Clc1ccccc1-c1nnc(CNC2CC2)o1	-3	2	-8%	/	4%	12%	2.4
Clc1ccc(-c2ccnc3nc(N4CCOCC4)nn23)c(Cl)c1	-5	/	14%[15.4 µM]	/	6%	/	/
Cc1cccc2c(-c3ccccc3)cc(=O)[nH]c12	-8	12	-33%[inhibitor]	-14%	0%	17%	-0.1
CCCCCOC(=O)CC(C(=O)OCCCCC)N1CCCCC1 (stereo unspecified)	-3	15	-2%	-1.7%	2%	-10%	-0.3
O=c1oc(-c2cccs2)nc2c1cnn2-c1ccccc1	-10	29	-47%[inhibitor]	222%	10%	-8%	0.4
O=C(CCNC(=O)c1ccc(Br)cc1)Nc1ccc(S(=O)(=O)N2CCCCC2)cc1	-22	-16	-4%	-1.3%	4%	/	/
Cc1cccc(NC(=O)CSc2n[nH]c(-c3cccnc3)n2)c1	-15	6	0%	1.0%	-12%	3%	-0.6
COc1cc(/C=N/Nc2nc(C)cc(=O)[nH]2)ccc1O	-8	8	-73%[inhibitor]	-5.1%	0%	-19%	-2.9
COc1ccc(C)cc1N(CC(=O)Nc1ccc2c(c1)OCCO2)S(C)(=O)=O	-5	1	-62%[inhibitor]	-1.4%	2%	18%	-0.4
Cc1nonc1NC(=O)c1oc2ccc(F)cc2c1C	-4	15	-7%	-6.2%	-9%	16%	/
Cc1cccc(N2CCN(S(=O)(=O)c3ccc4c(c3)CC(C)N4C(=O)C3CC3)CC2)c1C (stereo unspecified)	-5	4	-6%	-3.5%	-3%	-7%	-0.7
Cc1cc(NCc2cccnc2)no1	-5	-8	18%	/	-2%	2%	1.2
CCOC(=O)C1Nc2ccc(OC(F)(F)F)cc2C2C=CCC12 (stereo unspecified)	-8	/	?	-3.8%	-7%	/	/
